Arbovirus anti – blocks arbovirus infection; 200,000 compounds, 0.37% hits; inhibition, % at 10 µM; arbovirus infection cell-based antiviral screen;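 active means inhibition from about 30%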;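 further: bluetongue infection of BSR cells; cell survival read as ATP light after 72 h; 0% = infected wells without compound and 100% = uninfected wells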
Mtb H37Rv – M. tuberculosis H37Rv growth inhibitors, H37Rv strain (AID 1626) | M. tuberculosis H37Rv growth inhibition; higher % means a stronger effect | 220,000 compounds, 0.95% hits | one-dose inhibition, % at 10 µM; IC50 in µM for titrated hits;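 active means confirmed in a dose series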;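 further: bacteria incubated seven days before Alamar blue readout; 0% = bacteria only wells and 100% = bacteria with antibiotic wells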
RecA splice inh – Mtb RecA intein splicing inhibition; cell-free RecA intein splicing, fluorescence; inhibition, %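 (about 9 µM by stock and volumes)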; 290,000 compounds, 0.75% hits; in the data active means inhibition above about 30%;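 further: 0% = vehicle wells and 100% = reference inhibitor control wells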
Target sequence (P9WHJ3 whole entry, looked up, canonical isoform): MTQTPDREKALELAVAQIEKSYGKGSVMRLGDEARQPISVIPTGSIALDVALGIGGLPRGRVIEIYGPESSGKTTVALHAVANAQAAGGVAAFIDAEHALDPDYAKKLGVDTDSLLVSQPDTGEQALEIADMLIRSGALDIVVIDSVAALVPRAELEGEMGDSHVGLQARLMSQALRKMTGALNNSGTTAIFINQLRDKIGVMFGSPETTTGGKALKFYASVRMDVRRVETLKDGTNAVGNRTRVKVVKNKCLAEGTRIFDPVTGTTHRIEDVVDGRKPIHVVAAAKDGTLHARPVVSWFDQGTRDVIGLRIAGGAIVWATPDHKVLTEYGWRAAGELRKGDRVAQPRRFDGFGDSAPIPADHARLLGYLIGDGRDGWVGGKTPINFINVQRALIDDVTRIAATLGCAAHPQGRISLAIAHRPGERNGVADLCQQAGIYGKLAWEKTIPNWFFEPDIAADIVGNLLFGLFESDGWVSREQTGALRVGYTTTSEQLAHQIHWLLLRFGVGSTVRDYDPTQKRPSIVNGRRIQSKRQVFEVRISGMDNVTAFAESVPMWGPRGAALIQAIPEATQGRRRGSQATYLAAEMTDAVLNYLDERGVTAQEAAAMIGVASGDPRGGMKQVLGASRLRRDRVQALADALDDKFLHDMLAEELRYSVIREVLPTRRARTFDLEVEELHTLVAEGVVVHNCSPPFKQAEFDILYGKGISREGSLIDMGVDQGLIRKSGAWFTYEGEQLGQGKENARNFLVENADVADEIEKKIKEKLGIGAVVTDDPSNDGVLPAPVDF
Mtb bLac sens – beta-lactam sensitization of Mtb H37Rv; M. tuberculosis H37Rv growth with meropenem, percent inhibition; hits of this screen are not shown here; inhibition, % at 25 µM; 330,000 compounds, 0.27% hits; AID 434955;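 active means about 74% or more and at least 40 points above the plate without the antibiotic, then above 30% in a dose series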;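 further: growth measured after seven days incubation then overnight dye step; 0% = bacteria only wells and 100% = bacteria with antibiotic; twin plates without the antibiotic show which effects depend on it; some results filed as inactive read as strong as hits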
YopH inh – inhibitors of Yersinia enterocolitica YopH tyrosine phosphatase; 140,000 compounds, 0.16% hits; inhibition, %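 (about 10 µM by stock and volumes)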; fluorescence Ex485/Em525;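 active means inhibition of 50% or more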;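 further: controls were vehicle for no effect and minimum signal wells for full effect; inactives centre near -20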
The depositor's hits bear a star; nt = no result given. Only part of the results is shown; rates above refer to the full screens.

SMILES	Arbovirus anti	Mtb H37Rv	RecA splice inh	Mtb bLac sens	YopH inh
CCCOc1ccc(NC(=O)CC2C(=O)N(c3ccc(OCC)cc3)C(=S)N2C2CC2)cc1 (centres undefined)	nt	nt	0.6	-1	nt
COc1ccc(-c2nn(-c3ccccc3)cc2/C=C2/SC(=S)N(CCC(=O)O)C2=O)c(C)c1	nt	nt	29	-23	nt
COc1ccc([N+](=O)[O-])cc1NC(=O)CC1SC(=Nc2cccc(C)c2C)N(/N=C/c2cccc(OC)c2OC)C1=O (centres undefined)	16	14%	2.3	1	nt
CS(=O)(=O)c1ccc(-c2cccc(NC(=O)c3ccc(Br)o3)c2)nn1	nt	nt	-0.1	-3	nt
Cc1cc(SCC(=O)N/N=C/c2cccnc2)nc2c(C)cccc12	-7	-2%	0.0	0	nt
C/C(=N/OC(=O)c1ccc(C)cc1)C(=O)c1ccc(Br)cc1	nt	-7%	-0.7	-2	nt
CCCOc1cccc(C(=O)NCCNC(=O)c2ccc(C)nc2)c1	nt	nt	2.8	-7	nt
O=C(CN1C(=O)C2C3CC(C(Br)C3Br)C2C1=O)Nc1ccc(C(=O)O)cc1 (centres undefined)	nt	-12%	0.2	3	nt
O=C(NCc1ccccn1)c1ccc(Cl)s1	-5	5%	-0.1	0	-16
COc1ccc(NC(=O)c2cc(-c3cc(Cl)ccc3O)n[nH]2)c(OC)c1	nt	nt	-1.1	1	nt
COc1ccccc1Nc1nc2c(s1)CCC2	1	3%	1.7	-12	-32
CCc1nnc(NC(=O)CN2C(=O)NC3(CC(C)CC(C)(C)C3)C2=O)s1 (centres undefined)	nt	nt	-3.4	-1	nt
CC(=O)c1noc(C)c1C(=O)Nc1nccs1	4	-1%	0.8	-6	-24
Cc1cc(=O)n(CCCO)c(O)c1C#N	-2	2%	4.1	3	-49
NC(=O)[C@@H]1CCCN1C(=O)c1ccc2nc(Cc3ccccc3F)oc2c1	nt	nt	0.8	2	nt
O=C(Nc1ccc2c(c1)CCC2)c1cc2ccccc2o1	11	nt	-1.4	94	1
Cc1n[nH]c(=O)n1-c1ccc(OCc2ccccc2)cc1	0	0%	-0.5	5	nt
Cc1ccc(NC(=O)c2c(C)nn(-c3ccccc3)c2Cl)cc1	-1	8%	-2.4	89	-19
O=C(NCc1cccnc1)C(=O)NCC1OCCCN1S(=O)(=O)c1ccc(Cl)cc1 (centres undefined)	17	-2%	-0.6	-3	nt
CC(C)Oc1c(Br)cc(Br)cc1/C=N/NC(N)=S	-3	36%	-0.1	0	-22
Cc1ccc(N2C(=O)NC(=O)/C(=C\c3cccn3C(C)(C)C)C2=O)cc1	0	5%	0.5	8	nt
CCOc1ccc(OCc2ccc(C(=O)Nc3cccc(C)n3)o2)cc1	-4	70%	1.0	86	-37
O=C(C1=C(O)C(=O)N(Cc2ccco2)C1c1cccc(Cl)c1)c1ccco1 (centres undefined)	nt	nt	3.3	2	nt
Cc1cnc([N+](=O)[O-])n1CCOC(=O)c1cccc(F)c1	nt	nt	0.5	-1	nt
CC(=O)c1cccc(NC(=O)NC2CC3CCCC(C2)N3CC(C)C)c1 (centres undefined)	0	-14%	2.4	-1	40
Remaining list, next part
SMILES	Arbovirus anti	Mtb H37Rv	RecA splice inh	Mtb bLac sens	YopH inh
CC(C)N(C(=S)Nc1cccnc1)c1ccccc1	nt	-8%	-0.9	1	nt
Cc1nn(C)c(C)c1CS(=O)(=O)c1ccccc1	0	0%	-1.6	4	nt
Cc1cc(NS(=O)(=O)c2ccc(NC(=S)NC(=O)c3cccnc3)cc2)no1	-5	-5%	-1.3	-2	nt
COc1ccc(NC(=O)COC(=O)c2ccccc2SCC(=O)N2CCCC2)cc1	nt	nt	0.5	-2	nt
CCc1c(O)nc(SCC(=O)Nc2nc3ccccc3s2)n(C2CCCCC2)c1=O	nt	-2%	4.0	3	nt
Cc1cccc(OCc2nnc(SCC(=O)N3CCCC3)o2)c1	nt	nt	-0.2	0	nt
Cc1ccc(S(=O)(=O)Nc2ccccc2C(=O)N2CCCCCC2)cc1	nt	nt	0.4	0	nt
Cc1csc(NC(=O)CCCC(=O)O)c1-c1nc2ccccc2s1	nt	13%	1.2	99	nt
COc1cccc(NC(=O)CN(C)C(=O)CCNC(=O)c2ccc(Br)cc2)c1	nt	nt	-0.6	-2	nt
CCOc1ccccc1C(=O)N[C@H](C(=O)Nc1cc(S(=O)(=O)N(C)C)ccc1OC)C(C)C	6	1%	1.2	-2	nt
Cc1ccc(S(=O)(=O)Nc2c(O)c3ccccc3oc2=O)cc1C	nt	nt	-0.4	-12	nt
CCOC(=O)N1CCN(C(=O)Nc2ccc3nc(C)sc3c2)CC1	-2	3%	-1.4	-6	10
COC(=O)C1=C(c2cc3ccccc3o2)C[C@@H]2CC[C@H]1N2C(=O)N1CCCCC1	nt	3%	9.2	1	nt
CNC(=O)CSCc1c(F)cccc1Cl	-3	0%	-0.7	-19	1
CCOC(=O)N1CCN(c2ccc(C(=O)CC)cc2F)CC1	8	8%	3.6	3	-36
COCC(C)NC(=S)Nc1ccccc1[N+](=O)[O-] (centres undefined)	2	8%	1.1	12	nt
CCOC(=O)CNC(=O)CSc1nc(-c2ccccc2)ns1	1	1.5µM*	-0.2	100	nt
Cc1ccc(NC(=O)COC(=O)CCCC2=NS(=O)(=O)c3ccccc3N2)cc1C	nt	nt	-4.4	1	nt
CC(C)NC(=O)CCNS(=O)(=O)c1ccc(Br)cc1	-2	4%	-5.5	-6	-18
O=C(CCCn1c(=O)[nH]c2cc(Cl)ccc2c1=O)N1CCC2(CC1)OCCO2	5	-5%	-5.7	5	-23
Cc1cc(/C=C2\C(=O)NC(=O)N(Cc3ccccc3)C2=O)c(C)n1-c1ccc(Cl)c(C(=O)O)c1	13	3%	0.1	3	-21
CCN1CCc2c(OCC(=O)Nc3ccccc3)cccc2C1=O	nt	nt	0.4	-16	nt
CCN(C(=O)CCc1nc(-c2ccccc2F)no1)c1cc(OC)ccc1OC	-3	10%	nt	nt	2
Cn1cc(/C=C2\SC(=O)NC2=S)c2ccccc21	-9	-6%	nt	-3	nt
CCN(CC)CCNS(=O)(=O)c1ccc(C(=O)NN)cc1	5	2%	-1.9	-6	nt

In another format: entries from further up
mol: COc1cccc(NC(=O)CN(C)C(=O)CCNC(=O)c2ccc(Br)cc2)c1
- Arbovirus anti: nt
- Mtb H37Rv: nt
- RecA splice inh: -0.6
- Mtb bLac sens: -2
- YopH inh: nt

mol: Cc1ccc(S(=O)(=O)Nc2c(O)c3ccccc3oc2=O)cc1C
- Arbovirus anti: nt
- Mtb H37Rv: nt
- RecA splice inh: -0.4
- Mtb bLac sens: -12
- YopH inh: nt

New compounds follow.
SMILES	Arbovirus anti	Mtb H37Rv	RecA splice inh	Mtb bLac sens	YopH inh
COc1cc(C(=O)NC2CCN(Cc3ccccc3)CC2)cc(Cl)c1OC(C)C	nt	nt	-0.9	0	nt
O=C(NCc1nnc2c(C(F)(F)F)cc(Cl)cn12)c1ccco1	nt	nt	0.6	0	nt
Cc1ccc(NC(=O)CC2SC(=Nc3ccc(O)cc3)NC2=O)cc1 (centres undefined)	-4	-9%	-6.2	-3	nt
O=C(Cn1nnc(-c2ccccc2F)n1)Nc1ccc2c(c1)OCO2	-1	-6%	-1.9	4	-46
COc1ccc(OCC(=O)NC2CCCc3ccccc32)cc1 (centres undefined)	nt	nt	-3.2	4	nt
CCOc1ccc(NC(=O)C(C)N2C(=O)c3ccccc3C2=O)cc1 (centres undefined)	nt	nt	0.3	0	nt
Cc1nnc(SCC(=O)NCc2ccco2)[nH]c1=O	12	2%	0.5	-8	-38
O=C(N/N=C/c1ccc(F)cc1)c1ccncc1	nt	nt	-0.1	98	nt
CC1=CC(c2ccc(Cl)cc2)n2nc(NC(=O)c3ccccc3)nc2N1 (centres undefined)	-1	2%	0.5	-2	-16
CCC1=C([N+](=O)[O-])C(c2ccc3c(c2)OCO3)NC(=O)N1 (centres undefined)	nt	nt	-1.3	-3	nt
CCOc1ccc(CNC(=O)Cn2nc(C)n3nc(-c4ccccc4)cc3c2=O)cc1	nt	nt	-2.7	4	nt
Cc1c(O)ccc(C(=O)CN2CCN(Cc3ccccc3)CC2)c1O	nt	nt	0.6	-4	nt
c1ccc(COc2ccc(OCCn3cncn3)cc2)cc1	-2	13%	-1.7	26	-36
CCCc1nn(C)c2c(=O)[nH]c(-c3cc(S(=O)(=O)N4CCN(C)CC4)ccc3OCC)nc12	nt	nt	-1.0	-5	nt
Cc1cccc(/N=C/c2c(O)c3ccccc3oc2=O)n1	1	-3%	-6.0	2	-41
Cc1ccc(C(=O)N2N=C(CC(C)C)CC2(O)C(F)(F)F)o1 (centres undefined)	5	-1%	0.4	-8	nt
CC(n1cnnn1)C12CC3CC(CC(C3)C1)C2 (centres undefined)	-44	-16%	6.0	13	-34
O=C(c1cc(Cl)nc2ccccc12)N1CCN(S(=O)(=O)c2cccc(F)c2)CC1	nt	nt	0.4	-3	nt
O=C(NC(=O)c1ccccc1O)c1ccc2c(c1)CCO2	nt	-10%	-0.6	-6	nt
CC(C)CCN(Cc1ccco1)S(=O)(=O)c1ccc(-c2ccc(=O)[nH]n2)s1	nt	nt	2.0	6	nt
CCN1CCN(Cc2nnc(-c3ccc(C)cc3)o2)CC1	nt	nt	1.1	5	nt
O=C(O)CNC(=S)N(Cc1ccccc1)Cc1cccnc1	9	-3%	1.4	-3	nt
Cc1ccc2[nH]cc(CCNC(=O)C3CCCCC3)c2c1	nt	nt	-2.4	4	nt
O=C(CN1CCc2ccccc2C1)NCC(=O)Nc1ccc(F)cc1	14	-4%	-1.9	-6	nt
COc1ccc(Cl)cc1NC(=O)Nc1ccccc1SC	5	12%	-0.2	5	nt
Next structures
SMILES	Arbovirus anti	Mtb H37Rv	RecA splice inh	Mtb bLac sens	YopH inh
CCOC(=O)c1ccc(NC(=O)c2nc[nH]c2C(=O)N(CC)CC)cc1	nt	-5%	-1.8	5	nt
CCC(C)c1ccc(NC(=O)COC(=O)c2nc3nccc(C)n3n2)cc1 (centres undefined)	-2	43%	nt	-8	nt
COc1ccc(OCC(=O)NNC(=O)C(=O)Nc2cc(OC)ccc2OC)cc1	nt	nt	-2.7	67	nt
COc1ccc2nc(C)cc(C(=O)O)c2c1	2	1%	1.7	-6	-2
CC(C)n1c(N2CCN(C(=O)Nc3ccccc3)CC2)nc2ccccc21	-9	11%	3.2	-8	-52
O=C(CCN1C(=O)/C(=C/c2cccs2)SC1=S)Nc1ccc(C(=O)O)c(O)c1	nt	nt	44*	56	nt
CC1=CC(c2ccccc2)n2nc(NC(=O)CCCC(=O)O)nc2N1 (centres undefined)	nt	nt	-6.7	-4	nt
Nc1c(C(=O)O)sc2nc(-c3ccccc3)cc(-c3ccc(F)cc3)c12	nt	1%	-0.2	-2	nt
COc1ccc2c(c1)c(C)cc[n+]2Cc1ccccc1	nt	nt	1.0	-4	nt
CC(C)C(=O)Nc1c(-c2ccccc2Cl)c(=O)c2ccccc2n1C	nt	nt	-2.9	1	nt
O=C(Cc1ccc([N+](=O)[O-])cc1)Nc1nnc(C2CC2)s1	16	-1%	-2.2	-1	-4
C[C@H](NCc1c[nH]c2ccccc12)c1ccccc1	nt	nt	1.6	-3	nt
CCn1c(SCC(=O)Nc2cccc(C)n2)nc2c1c(=O)n(C)c(=O)n2C	0	-1%	-1.5	-3	nt
CC(=O)Nc1ccc2nc(NC(=O)COc3ccccc3Cl)sc2c1	10	8%	-0.2	-11	nt
COC(=O)c1sccc1OCc1cccc(OC)c1	-3	9%	0.3	4	nt
COc1cc(NC(=O)c2ccc3c(c2)OCCO3)ccc1NC(=O)c1cccs1	-25	38%	3.6	98	nt
NC(=O)NCc1ccccc1F	-2	9%	nt	-2	nt
CCC(c1nnc(SCC(=O)NCC2CCCO2)n1Cc1ccccc1)N(C)C (centres undefined)	nt	nt	nt	0	-23
COc1ccc(CNC(=O)CCn2c(=O)oc3ccccc32)cc1	5	-5%	-0.8	-3	-32
O=C(Nc1cccc([N+](=O)[O-])c1)c1[nH]ncc1Cl	6	0%	0.6	-4	0
CSc1ccc(C2C(C(=O)c3ccco3)=C(O)C(=O)N2c2nnc(SC)s2)cc1 (centres undefined)	nt	nt	1.1	1	nt
CCOP(=O)(c1ccc(N(C)C)cc1)C(O)c1ccccc1OC (centres undefined)	-2	-2%	-5.4	4	-18
C=CCn1c2ccccc2c2nnc(SCC(=O)Nc3c(C)n(C)n(-c4ccccc4)c3=O)nc21	1	-1%	nt	nt	2
CC12CNCC(C)(CN(C3(O)C(=O)Nc4ccc(Br)cc43)C1)C2=O (centres undefined)	2	-7%	1.2	4	nt
COC(=O)c1sccc1NC(=O)CSc1ccccc1NS(=O)(=O)c1ccc(Cl)cc1	13	-7%	5.6	-3	-28
O=C(O)CCCNS(=O)(=O)c1cccs1	-3	2%	-0.9	-7	-18
OCCNC(=S)c1ccccc1	nt	-4%	0.7	-12	nt
CCN1CCc2c(sc(NC(=O)c3ccc4ccccc4c3)c2C(N)=O)C1	nt	nt	0.3	79	nt

Structures listed so far that contain a CF3 group (two):
SMILES	Arbovirus anti	Mtb H37Rv	RecA splice inh	Mtb bLac sens	YopH inh
O=C(NCc1nnc2c(C(F)(F)F)cc(Cl)cn12)c1ccco1	nt	nt	0.6	0	nt
Cc1ccc(C(=O)N2N=C(CC(C)C)CC2(O)C(F)(F)F)o1 (centres undefined)	5	-1%	0.4	-8	nt
